LANA-H2B inh: blockers of LANA interaction with H2A/H2B – biochemical, FP readout, HTS, primary screen; Protein LANA1 (Human herpesvirus 8 type P (isolate GK18)), Q9QR71; inhibition, % (no concentration beside the values); cell-free LANA-H2A/H2B peptide, fluorescence polarization; actives 0.6% (n = 320,000); in the data active = inhibition mostly above about 10%, no sharp cut-off; inactive = mostly below about 6.7%;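 note: stock transfer was 7.5 nL into about 10 µL; 0% = median of vehicle wells and 100% = median of positive control wells; one replicate is shown; the record names a cut of 25% in any replicate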
Target sequence (Q9QR71 whole entry, looked up): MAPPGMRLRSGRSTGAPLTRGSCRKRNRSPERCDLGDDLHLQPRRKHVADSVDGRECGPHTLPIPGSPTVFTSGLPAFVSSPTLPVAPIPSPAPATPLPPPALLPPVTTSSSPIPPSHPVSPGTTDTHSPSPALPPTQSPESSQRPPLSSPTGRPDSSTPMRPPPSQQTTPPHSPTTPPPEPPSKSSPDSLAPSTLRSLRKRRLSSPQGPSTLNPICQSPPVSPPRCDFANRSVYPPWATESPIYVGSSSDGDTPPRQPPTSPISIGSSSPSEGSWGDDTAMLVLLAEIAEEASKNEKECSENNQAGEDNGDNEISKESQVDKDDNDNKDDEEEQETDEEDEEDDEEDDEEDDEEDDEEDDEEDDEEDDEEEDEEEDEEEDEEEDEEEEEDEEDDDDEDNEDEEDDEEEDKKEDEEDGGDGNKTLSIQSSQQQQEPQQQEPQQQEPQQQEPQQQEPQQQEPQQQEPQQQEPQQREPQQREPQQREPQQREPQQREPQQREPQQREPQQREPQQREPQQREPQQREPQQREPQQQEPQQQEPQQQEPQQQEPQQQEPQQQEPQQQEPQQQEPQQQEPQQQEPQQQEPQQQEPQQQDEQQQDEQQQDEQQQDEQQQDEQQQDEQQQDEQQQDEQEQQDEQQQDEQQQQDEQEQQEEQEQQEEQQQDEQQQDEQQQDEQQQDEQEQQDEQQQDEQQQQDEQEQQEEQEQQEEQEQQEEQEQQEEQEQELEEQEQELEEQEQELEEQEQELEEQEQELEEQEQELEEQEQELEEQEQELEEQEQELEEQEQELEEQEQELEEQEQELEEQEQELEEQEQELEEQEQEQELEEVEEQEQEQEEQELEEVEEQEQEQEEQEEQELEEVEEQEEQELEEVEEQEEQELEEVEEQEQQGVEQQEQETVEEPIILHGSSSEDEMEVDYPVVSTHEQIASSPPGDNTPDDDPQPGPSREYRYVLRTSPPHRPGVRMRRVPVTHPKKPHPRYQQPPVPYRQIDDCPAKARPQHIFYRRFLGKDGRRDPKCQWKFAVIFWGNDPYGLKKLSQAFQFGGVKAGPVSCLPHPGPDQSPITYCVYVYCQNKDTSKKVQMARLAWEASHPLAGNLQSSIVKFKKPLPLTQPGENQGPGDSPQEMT
FGF22 binding: binders of human FGF22 protein, primary screen, FGF22 synaptogenesis inhibitor project, biophysical, thermal shift, single point. Fibroblast growth factor 22 (Homo sapiens), Q9HCT0. recombinant FGF22 thermal shift, SYPRO orange fluorescence; percent of sucrose octasulfate shift, DMSO zero. calls only at 9.99 µM. actives 1.5% (n = 340,000);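 active = melting point raised past a set limit in the mean and every replicate; three in four hits are not shown here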
UCH37 inh: inhibitors of human UCH37 deubiquitinase, primary screen, biochemical, Ub-AMC cleavage, fluorescence; Ubiquitin carboxyl-terminal hydrolase isozyme L5 (Homo sapiens), Q9Y5K5; purified proteasome/UCH37; inhibition, % (test concentration not listed); actives 0.33% (n = 330,000); AID 588478, 2011;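 active = mean of two replicates above 20%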;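 note: 0% = compound-free wells with enzyme and 100% = wells lacking proteasome; stock transfer was 100 nL into about 20 µL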
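Assay system: Proteasome-bound UCH37. Buffer or medium: pH 7.4 Tris-HCl (50 mM) with ovalbumin, ATP-MgCl2, DTT. Incubation: 30 min preincubation with enzyme, 25 min cleavage at room temperature. Measured by: fluorescence, ex 355 nm, em 460 nm. Read-out basis: percent inhibition. Control set: wells without proteasome as full block, compound-free enzyme plus substrate as uninhibited.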
HNF4A DNA FP: change in binding of human HNF4A to DNA, primary screen, biochemical, fluorescence polarization, FITC-DNA; Hepatocyte nuclear factor 4-alpha (Homo sapiens), P41235; 1 h; activity change, % at 10 µM; actives 0.3% (n = 360,000); AID 1224865, 2016; in the data active = activity change above about 30%, passing the limit was not always enough;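 note: controls were the assay level and a saturating level of protein; the project sought stronger binding though the title names inhibitors; some compounds called inactive have numbers as strong as hits; positive values seem to mean higher polarization but the record does not say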
E coli growth: E. coli growth inhibition, primary screen, OD600 | Escherichia coli growth, 23 h; hits give low values | OD600 absorbance (test concentration not listed) | actives 0.21% (n = 330,000);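 active = OD600 absorbance below the run mean of sample wells minus 3.6 SD, in any replicate, cut at about 0.56 in these data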;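 note: stock transfer was 300 nL into about 60 µL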
B2AR ag: beta2AR agonists driving receptor internalization, primary screen, cell-based, FAP fluorogen, flow cytometry. Beta-2 adrenergic receptor (Homo sapiens), P07550. Am2.2-beta2AR cells; reference of the scale not given here. response, % (concentration not given with the values). actives 0.43% (n = 340,000). AID 504454, 2011;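 active = response above a set limit, near 3 SD of response in nonfluorescent compounds, cut at about 42% in these data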;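 note: stock transfer was 100 nL into about 11 µL; a reference agonist was the positive control; negative values mostly stem from fluorescent compounds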
ALR inh: inhibitors of human ALR sulfhydryl oxidase, primary screen, biochemical, H2O2 detection, HRP-luminol luminescence, single point; purified ALR, DTT oxidation; inhibition, % (test concentration not listed); actives 3.8% (n = 290,000); AID 485317, 2010;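 active = mean and each replicate at 75% or more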;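 note: stock transfer was 7.5 nL into about 7.5 µL; 0% = neutral wells and 100% = wells with inactivated enzyme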
The depositor's hits bear a star; i = inactive; / = not tested or not shown; + = active, no number.

Structure,LANA-H2B inh,FGF22 binding,UCH37 inh,HNF4A DNA FP,E coli growth,B2AR ag,ALR inh
CCCCOc1ccc(C(=O)NNC(=O)C2C3C=CC(C3)C2C(=O)O)cc1 (centres undefined),-4.7,i,2.6,-1.2,0.71,-2,-4
FC(F)(F)c1nc(N2CCN(c3ccccc3)CC2)nc2c1CCCCC2,0.9,/,1.1,3.3,0.71,6,-11
C/C(=N\NC(=O)c1cccc(O)c1)c1ccc(NC(=O)Cc2ccccc2)cc1,2.7,i,/,-2.4,/,10,-1
O=C(O)CCNC(=O)/C(=C\C=C\c1ccccc1)NC(=O)c1ccccc1,/,i,10,-5.4,0.7,-2,/
COC(=O)c1ccccc1NC(=O)CSc1nc(O)cc(=O)n1C1CCCC1,-4.4,/,8.4,0.8,0.7,-16,98*
Nn1c(-c2cccc([N+](=O)[O-])c2)nc2ccccc2c1=O,0.8,i,5.1,0.6,0.63,0,-5
Cc1ncsc1C(=O)N1CCCC(C(=O)c2ccc3ccccc3c2)C1 (centres undefined),-0.2,i,-23,0.2,0.69,-1,-2
COc1ccc(NC(=O)CN2C(=O)COc3ccc(S(=O)(=O)N4CCCCC4)cc32)c(OC)c1,-3.3,i,0.7,0.7,0.63,-1,-10
CCOc1nc(-c2ccccc2)c2cc(Br)ccc2n1,-3.3,i,-18,2.2,0.65,8,2
N#C/C(=C\c1ccc(O)c(O)c1)C(=O)NCc1ccccc1,/,i,4.8,1.2,/,13,/

Next part (two carried over from the part before).
Structure,LANA-H2B inh,FGF22 binding,UCH37 inh,HNF4A DNA FP,E coli growth,B2AR ag,ALR inh
CCOc1nc(-c2ccccc2)c2cc(Br)ccc2n1,-3.3,i,-18,2.2,0.65,8,2
N#C/C(=C\c1ccc(O)c(O)c1)C(=O)NCc1ccccc1,/,i,4.8,1.2,/,13,/
COc1ccc(NC(=O)COc2ccc(C(=O)OCC(=O)N(C)C3CCS(=O)(=O)C3)cc2OC)cc1 (centres undefined),-2.9,i,2.5,2.4,0.67,0,/
O=C(NCc1ccncc1)C(=O)NC1CC1,+,i,1.4,4.0,0.7,-1,3
CCOC(=O)c1sc(=NC(=O)c2ccc(F)cc2)n(C)c1C,-2.9,i,-54,-3.2,0.7,3,-10
COc1nc(NCCc2ccc(OC)c(OC)c2)nc(NC(C)(C)CO)n1,4.3,/,1.6,-1.6,0.72,2,-3
COc1ccc(CNCC(O)COc2cccc3c2OC(C)(C)C3)cc1 (centres undefined),1.3,i,1.8,0.8,0.7,13,-3
COc1ccc(NCC(=O)Nc2cccc(C(F)(F)F)c2)cc1S(=O)(=O)N1CCOCC1,-2.3,i,5.0,3.2,0.72,1,-1
N#CCCCc1cc2cc(F)ccc2cn1,5.7,i,2.6,1.5,0.62,-11,3
CC(=O)Nc1ccc2nc(CN3CCN(CC=C(C)C)C(CCO)C3)ccc2c1 (centres undefined),-1.0,i,-11,4.5,0.67,-1,-11
Cc1nn(CC(=O)NC2CC2)c(C)c1S(=O)(=O)NC(C)(C)C,-0.4,i,0.8,0.1,0.67,3,7
CCN1CCN(CCOCCOc2ccccc2-c2ccccc2)CC1,-0.9,/,2.4,/,0.64,/,-4
Cc1onc(-c2ccccc2Cl)c1C(=O)Nc1cccc(-c2cn3cccnc3n2)c1,5.2,/,i,1.7,0.68,-5,/
CN(C(=O)CSc1nnc2ccccn12)C1CCS(=O)(=O)C1 (centres undefined),-5.1,/,-0.2,0.9,0.71,0,-2
CC(C)CN(C(=O)CN(C)C(=O)c1ccco1)c1c(N)n(CC(C)C)c(=O)[nH]c1=O,1.8,i,-1.9,1.8,0.64,-1,-3
Cc1ccc(S(=O)(=O)NCCC(=O)OCC(=O)Nc2cccc(S(=O)(=O)NC3=NCCCCC3)c2)cc1,-0.8,/,6.3,-0.4,0.7,1,-1
CCCCn1c(N)c(N(CC(C)C)C(=O)c2cc(S(=O)(=O)N3CCOCC3)ccc2Cl)c(=O)[nH]c1=O,2.4,i,3.9,-2.5,0.65,-4,-1
Cc1c(O)ccc(C(=O)CN2CCN(Cc3ccc4c(c3)OCO4)CC2)c1O,-6.4,/,3.4,4.8,0.7,-3,-1
CCOC(=O)c1cc(-c2nnc(SCC(=O)Nc3ccc(F)cc3)o2)c(C)nc1C,0.5,/,1.9,4.0,0.74,7,-2
CC(OC(=O)CCN=C1NS(=O)(=O)c2ccccc21)C(=O)Nc1ccc(S(N)(=O)=O)cc1 (centres undefined),-1.0,i,-0.3,-0.1,0.64,-4,-3
CC(=O)Nc1cccc(C(=O)OCC(=O)NNC(=O)c2ccc([N+](=O)[O-])cc2)c1,4.0,i,4.8,4.4,0.68,-2,-1
Cc1cc(C(=O)NCCCN2CCN(c3cc(Cl)ccc3C)CC2)n(-c2ccccc2)n1,0.3,i,3.3,4.6,0.73,-17,/
O=C(O)c1cccc(S(=O)(=O)Nc2ccc3[nH]c(=O)[nH]c3c2)c1,13,i,3.5,-0.7,0.65,1,15
Cc1ccccc1-c1cc(-c2ccccc2O)n[nH]1,-1.5,/,2.9,3.3,0.64,0,24
CC(NC(=O)C(=O)NCCN1CCN(C(=O)c2ccccc2Br)CC1)c1ccccc1 (centres undefined),8.1,i,-0.6,4.3,0.65,-6,/
Cc1ccc(/C=N/N2CCN(Cc3cccc4ccccc34)CC2)s1,-1.2,i,/,5.2,/,-6,-4
COc1ccc(N(CC(=O)NCc2cccc(OC)c2)S(=O)(=O)c2c(C)noc2C)cc1,0.1,/,/,-4.5,/,-4,-6
O=C(/C=C/c1ccccc1)N1CCN(c2c(Cl)cccc2[N+](=O)[O-])CC1,-6.5,i,-15,0.0,0.71,3,4
COc1ccc(C(=O)NC(=O)COC(=O)CCS(=O)(=O)c2ccc(C)cc2)cc1,/,i,0.5,4.1,0.66,-5,/
CCNc1nc(NC(C)CC)nc(Oc2ccc(=O)[nH]n2)n1 (centres undefined),5.5,i,1.5,-2.0,0.68,-2,-2
COc1ccnc(Nc2ccc(C)c(C)c2)c1C#N,0.3,/,2.0,-0.9,0.66,1,-2
CCC(=O)c1ccc(OCC(=O)Nc2ccc(S(=O)(=O)Nc3cc(C)nc(C)n3)cc2)cc1,2.7,i,3.1,-2.1,0.73,-13,0

Records above printed as active in LANA-H2B inh:
SMILES | LANA-H2B inh | UCH37 inh | B2AR ag | ALR inh
O=C(NCc1ccncc1)C(=O)NC1CC1 | + | 1.4 | -1 | 3

Next section
Structure,LANA-H2B inh,FGF22 binding,UCH37 inh,HNF4A DNA FP,E coli growth,B2AR ag,ALR inh
Cc1cc(=O)[nH]c(SCC(=O)Nc2nc3c(s2)CCCC3)n1,-1.5,/,5.1,1.7,0.66,1,99*
Cc1cc(C)n(C(=O)c2cccc([N+](=O)[O-])c2)n1,-12,/,2.1,-2.1,0.68,-5,-5
Cc1nc2c(ccc3nc(NC(=O)Cc4ccccc4)sc32)s1,-5.2,i,/,2.7,/,7,5
CC(=O)NCCNC(=O)c1cccc(NS(=O)(=O)c2ccc3c(c2)OCCO3)c1,1.2,/,-1.0,0.3,0.7,-8,3
O=C(c1ccc([N+](=O)[O-])cc1Cl)N1CCN(c2ccccn2)CC1,-1.7,i,7.7,-3.7,0.65,-8,-18
N#CC(C#N)=C1c2cc(S(N)(=O)=O)ccc2-c2ccc(S(N)(=O)=O)cc21,/,i,9.6,-3.4,0.68,4,/
CC(C)N(C(=O)COC(=O)c1ccc(Cl)nc1)C(C)C,1.5,i,1.9,0.8,0.67,-5,-4
Cc1noc(C)c1COC(=O)CCc1ccc(S(=O)(=O)N2CCCCC2)cc1,6.1,/,0.3,7.2,0.68,-6,5
O=C(c1ccc2nc(-c3ccccc3)c(-c3ccccc3)nc2c1)N1CCCCC1,1.3,i,-74,-4.2,0.67,7,-8
Cc1cc(C)cc(Oc2coc3cc(OC(=O)c4cccnc4)ccc3c2=O)c1,-0.1,/,-107,0.4,0.6,4,6
Cc1noc(C)c1COc1ccc(C(=O)OCc2nnc(-c3ccc(Cl)cc3)o2)cc1,-2.4,/,0.8,0.3,0.74,-2,-1
O=C(CSc1nnc(-c2ccco2)o1)Nc1cccc([N+](=O)[O-])c1,-0.4,i,-3.3,2.0,0.67,-7,56
C=CCn1c(O)c(N=Nc2ccccc2O)c2ccccc21,-3.2,i,-0.5,84*,0.62,-416,-1
COC(=O)c1ccc2c(=O)[nH]c(CCl)nc2c1,-0.4,i,-18,0.6,0.7,6,13
Cc1nnc(C)c2c(C)n(N)c(C)c12,3.9,i,-16,-6.8,0.64,2,-41
COc1ccccc1C(=O)Nc1ccccc1C(=O)NCc1ccco1,-5.6,i,-0.7,0.0,0.65,12,1
COc1cccc(/C=N/NC(=O)c2ccoc2C)c1,6.1,i,/,-2.1,/,-3,1
O=C(c1ccccc1)c1ccc(Oc2ccc([N+](=O)[O-])cc2[N+](=O)[O-])cc1,/,i,3.9,0.8,0.67,-10,/
C=CC[N+]1(CC(=O)NCc2ccc(NC(C)=O)cc2)CCOCC1,-2.7,i,1.5,0.7,0.69,3,-6
O=C(O)CC(c1ccccc1F)N1Cc2ccccc2C1=O (centres undefined),0.2,i,1.4,2.3,0.67,-2,17
Cc1cnc(C(=O)N2CCCC(C(=O)c3ccc(C(C)(C)C)cc3)C2)cn1 (centres undefined),0.0,i,3.7,-2.8,0.7,-4,-3
N#C/C(=C\c1coc2ccc(O)cc2c1=O)C(=O)Nc1nc2ccccc2s1,-5.3,i,-7.3,78,0.67,-164,7
CCOC(=O)N1CCN(Cc2nc3cc(NC(C)=O)ccc3n2CC)CC1,11,i,4.2,1.8,0.68,3,/
CC(C)n1cnc2cc(NCc3nc4ccccc4n3C)ccc21,-0.9,/,0.7,-1.2,0.7,-7,53
NC(=O)C1CCN(C(=O)c2cc3ccccc3cc2O)CC1,-3.5,i,1.9,1.3,0.66,6,-14
COc1ccc(CCNC(=O)CSc2ncn[nH]2)cc1,5.2,/,3.4,-1.7,0.74,-1,-1
O=C1CCCc2c1nc(-c1ccc([N+](=O)[O-])cc1)n2O,-4.8,i,14,3.0,0.61,5,-3
O=C(CCC(=O)N1CCN(c2ccccc2F)CC1)N1CCN(c2ccc(F)cc2)CC1,0.0,i,3.7,-1.4,0.64,-2,41
CC(C)[C@@H]1C=C(C(=O)O)O[C@H](OCCCCO)C1,-2.3,i,3.8,1.5,/,-2,/
COc1ccc(C(=O)O/N=C/c2ccc(S(=O)(=O)c3ccc(Cl)cc3)nc2)cc1,2.0,i,/,1.9,/,2,-6
O=C(Nc1c(Cl)cc(Cl)cc1-c1nc2ccccc2s1)c1ccc(Br)o1,4.8,i,-15,-0.9,0.71,3,-10

Fetched by compound from the entries so far:
Structure,LANA-H2B inh,FGF22 binding,UCH37 inh,HNF4A DNA FP,E coli growth,B2AR ag,ALR inh
O=C(c1ccc2nc(-c3ccccc3)c(-c3ccccc3)nc2c1)N1CCCCC1,1.3,i,-74,-4.2,0.67,7,-8
O=C(/C=C/c1ccccc1)N1CCN(c2c(Cl)cccc2[N+](=O)[O-])CC1,-6.5,i,-15,0.0,0.71,3,4

Assay outcomes as filed in PubChem.

Only part of the results is shown; rates above refer to the full screens.
